PABP FP inh – PABP-poly(A) binding inhibition | P11940 | PABP-poly(A) RNA binding, fluorescence polarization | inhibition, % at 35 µM | 1% of 290,000 active | AID 2014;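 active means 50% or more with normal probe brightness, or confirmed in later tests; about a fifth of its hits are not listed in these tables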;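 further: calls also rest on retests at 20 µM and on dose response follow-up; controls were probe without protein and protein plus probe with vehicle; some compounds called inactive have numbers as strong as hits; many hits fall short of the cut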
Target sequence (P11940 whole entry, looked up): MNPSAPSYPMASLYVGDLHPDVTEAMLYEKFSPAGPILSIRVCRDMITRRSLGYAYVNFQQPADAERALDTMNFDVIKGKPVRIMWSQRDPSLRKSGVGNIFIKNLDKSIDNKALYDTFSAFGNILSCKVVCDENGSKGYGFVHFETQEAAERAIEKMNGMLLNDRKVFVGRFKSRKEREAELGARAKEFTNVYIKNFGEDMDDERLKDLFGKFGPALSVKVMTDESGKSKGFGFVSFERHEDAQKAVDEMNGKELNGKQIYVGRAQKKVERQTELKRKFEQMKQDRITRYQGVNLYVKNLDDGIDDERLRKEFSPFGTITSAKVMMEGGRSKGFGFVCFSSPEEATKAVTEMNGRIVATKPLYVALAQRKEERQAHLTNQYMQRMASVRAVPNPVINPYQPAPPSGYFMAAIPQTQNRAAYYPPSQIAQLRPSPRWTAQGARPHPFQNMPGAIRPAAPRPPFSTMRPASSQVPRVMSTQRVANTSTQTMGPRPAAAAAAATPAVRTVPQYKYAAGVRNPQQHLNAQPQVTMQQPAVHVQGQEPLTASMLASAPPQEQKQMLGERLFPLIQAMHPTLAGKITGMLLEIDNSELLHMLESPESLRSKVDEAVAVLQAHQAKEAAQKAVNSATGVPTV
MT1-MMP act inh – MT1-MMP (human) activation inhibition. 0.061% of 360,000 active. HT1080 RFP-PRO-GFP cells, GFP/RFP ratio fluorescence, overnight; percent of plate control window, DMSO zero. AID 651647. P50281. GFP/RFP ratio change, % at 20 µM;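 active means GFP/RFP ratio change of at least 30% with cell ATP level not reduced by more than half and red fluorescence within 50% of control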; further: strong numbers were not always called active
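Material – HT1080 RFP-PRO-GFP cells · Control set – DMSO wells and RFP-L50D-GFP cells · Incubation – overnight cell settling, then overnight compound exposure, 37 °C, 5% CO2 · Compound dosing – single-point 20 µM compound, 1% DMSO · Read-out – GFP/RFP fluorescence ratio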
CSC inhib – cancer stem cell inhibition; cancer stem cell-like cells viability, luminescence; inhibition, % at 7.5 µM; 1.1% of 300,000 active;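 active means mean at 75% or more and at least half the replicates too; tested in HMLE shEcad cells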;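 further: 0% = median of negative and 100% = median of positive control wells; the first replicate is given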
Rce1 inhib – blocks yeast Ras-converting enzyme; yeast membranes, quenched prenylated peptide cleavage fluorescence; 0.27% of 290,000 active; calls only;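 active means fall in fluorescence gain of 50% or more versus controls, with final raw signal at or below 3038400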;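 further: plate controls were neutral control wells for no effect and wells lacking membranes for full effect; tested at 10 µM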
eIF4H FP inh – inhibitors of RNA binding by human eIF4H | eIF4H fluorescence polarization binding assay | 0.94% of 290,000 active | inhibition, % at 35 µM | Q15056;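 active means 50% or more with normal probe brightness, or confirmed in later tests; about a fifth of its hits are not listed in these tables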;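 further: calls also rest on retests at 20 µM and on dose response follow-up; 0% = protein and probe with vehicle and 100% = probe without protein; strong numbers were not always called active; many hits fall short of the cut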
Env fusion inh – blocks HIV Env-driven cell-cell fusion; inhibition, % at 12.3 µM; AID 651610; HeLa-JRFL Env/CEM21 cell fusion, luciferase; 1.1% of 360,000 active;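 active means mean replicate inhibition score of at least 50 and every replicate individually at or above 50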;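 further: 0% = plate neutral controls and 100% = maraviroc near 300 nM; one replicate is shown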
Yeast UUG start – alters start codon recognition fidelity in yeast. S. cerevisiae UUG-firefly luciferase reporter, luminescence/redox ratio. activity score, % at 18.7 µM. 0.13% of 350,000 active;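 active means replicate mean at a twofold rise or more, about +100% in these data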;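 further: firefly luciferase made from a UUG start codon reports start codon fidelity; reporter light over untreated wells divided by growth signal over untreated wells; some hits fall short of that in this replicate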
MT1-MMP act inh RFP – second read-out of MT1-MMP act inh, no call of its own (marks repeat the call); RFP signal change, %; measured here: RFP expression control read;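 0 = vehicle wells; hits needed this value within 50% of zero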
* hit, by the source's call; i = inactive; . = no result given; & = joins results of further samples. An excerpt; rates above refer to the full screens.

SMILES	PABP FP inh	MT1-MMP act inh	MT1-MMP act inh RFP	CSC inhib	Rce1 inhib	eIF4H FP inh	Env fusion inh	Yeast UUG start
CC(OC(=O)c1ccccc1C(=O)N(C)c1ccccc1)C(=O)Nc1ccccc1[N+](=O)[O-] (configuration not stated)	.	0	3	37	i	.	10	9
Cc1c(OCC(=O)NCCCn2ccnc2)ccc2c3c(c(=O)oc12)CCCC3	9	-1	-3	8	i	8	2	-21
O=C(O)/C=C/C(=O)c1c(-c2ccccc2)[nH]c2ccccc12	3	5	-2	-13	i	2	10	-9
COc1ccc(NC(=O)c2cccnc2N2CCOCC2)cc1	0	0	5	14	i	4	7	.
C=CCn1c(-c2cccn(Cc3ccccc3)c2=O)n[nH]c1=S	-3	3	2	-6	i	-1	-5	18
CCOc1ccc(N(CC(=O)NCc2ccccc2)C(=O)CCC(=O)Nc2nccs2)cc1	2	-3	-3	2	i	-22	9	-7
CC(C)CNC(=O)C(=O)Nc1cc2c3c(c1)C(C)C(=O)N3CCC2 (configuration not stated)	0	0	-1	9	i	2	-2	-21
Cc1ccccc1NC(=S)N1CCN(c2ccccc2C)CC1	5	0	-1	6	i	-7	21	11
COCc1c(C(=O)N/N=C/c2ccncc2)nnn1-c1nonc1N	-6	-4	1	-3	i	4	1	-14
CC1(C)Cc2ccccc2-c2nnc(C(F)(F)F)n21	-4	4	2	-7	i	6	-3	.
O=C(Nc1ccc(-c2cn3c(n2)SCC3)cc1)c1ccco1	0	-2	-4	3	i	-1	-37	.
C=CCc1ccccc1OCC(O)CN1CCN(c2ccccc2OC)CC1 (configuration not stated)	7	2&2	-1&3	14	i	-11	-11	-14&-6
c1ccc(-n2nnnc2Sc2ncnc3sc4c(c23)CCCC4)cc1	-9	-1	-5	32	i	-4	32	-8
CCOc1ccccc1NC(=O)CN1CCN(Cc2ccccc2)CC1	-8	0	-1	-8	i	-15	14	.
COc1ccc(CNCc2cn(-c3cccc(F)c3)nc2-c2ccc(C)o2)cc1	-11	-4	1	-4	i	-13	16	.
Cc1sc(NC(=O)CSc2nnc(C(C)C)n2C)c(C#N)c1C	7	-7	0	5	i	4	.	-16
COc1ccc(Cn2c(=O)sc3ccccc32)cc1OC	-6	5	-20	-8	i	-4	-77	-1
O=C(NNC(=S)NCc1ccco1)c1cccs1	-3	1	3	-9	i	-4	21	.
Cc1ccc(C)c(Cn2c(=O)n(CCC(=O)NCc3ccco3)c(=O)c3sccc32)c1	-3	-3	-4	27	i	8	.	-17
Cc1nn(C)cc1CNC(=O)C1CCC(=O)N(Cc2cccc(C(F)(F)F)c2)C1 (configuration not stated)	9	-1	-1	-4	i	-9	-13	-13
Cn1c(=O)c2cc(NC(=O)CC(C)(C)C)ccc2n1-c1ccccc1F	.	-1	0	.	.	.	1	-5
Cc1cccc(-c2nsc(SCC(=O)N3CCCC3)n2)c1	-7	-1	-2	18	i	-1	-197	-28
O=C(CCCn1c(=S)[nH]c2cc3c(cc2c1=O)OCO3)NCc1ccco1	-4	1	1	-3	i	-1	-2	-32
Cc1c(N2C(=O)CSC2=S)c(=O)n(-c2ccccc2)n1C	0	28	35	-5	i	1	1	-19
CN(C(=S)NC(=O)c1ccccc1)c1c(N)n(Cc2ccccc2)c(=O)[nH]c1=O	-1	1	2	-8	i	-8	-21	-17
Cc1cc(CO)nn1-c1ccc([N+](=O)[O-])cc1	0	-1	1	7	i	-2	2	-19
Cc1noc(C)c1C(=O)Nc1c(F)cc(F)cc1Br	17	3	7	1	i	-1	.	.
O=S(=O)(c1cccc2nsnc12)N1CCNCC1	-2	-6	2	0	i	-11	-18	-6
O=C(CN1c2ccccc2Sc2ccccc21)N/N=C/c1ccc(Cl)cc1Cl	0	-1	-3	25	i	2	11	-25
CC1CCN(c2ccc(NC(=O)Cn3c(=O)oc4ccccc43)cc2)CC1	-1	4	-4	-24	i	-12	7	-7
NC(=O)c1cc(S(=O)(=O)NCc2ccccc2)cs1	8	-5	0	17	i	-6	-6	9
CC12CC(c3ccccc3O1)N(C(=O)c1ccc(Br)o1)C(=O)N2c1ccccc1 (configuration not stated)	0	3	2	-2	i	-2	-276	-9
O=C(Nc1ccccc1Cl)Oc1ccc(-c2ccccc2)cc1	2	2	0	5	i	-7	-12	2
CCS(=O)(=O)N1CCCC(C(=O)NC2CCC(C)CC2)C1 (configuration not stated)	-5	3	2	-5	i	-2	.	-6
Cc1ccccc1C([O-])=Nc1ccc[n+](-c2nc3ccccc3nc2NS(=O)(=O)c2ccccc2)c1	21	.	.	-15	i	40	.	.
CCOC(=O)Nc1ccc2c(c1)N(C(=O)CCN1CCN3CCCC3C1)c1ccccc1CC2 (configuration not stated)	14	-5	-1	-10	i	5	.	-9
O=C(Nc1ccccc1)Nc1nnc([C@H]2C[C@H](O)[C@@H](CO)O2)s1	.	0	2	.	.	.	11	-13
COc1cccc(Cn2c(-c3nonc3N)nc3ccccc32)c1	-3	-3	-18	54	i	-9	.	-26
COc1ccc(C(O)c2nc(-c3cnc4ccccc4c3)cs2)cc1 (configuration not stated)	.	1	-7	.	.	.	-22	-15
O=C(Nc1cc(Cl)cc(Cl)c1)Nc1cnccn1	0	-9	-6	26	i	-8	-37	-15
Cc1ccc(F)c(CNC(=O)C2CCC(=O)N(Cc3ccccn3)C2)c1F (configuration not stated)	-1	3	2	5	i	6	2	-16
Cc1ccc(C)c(NC(=O)CSc2nnc(-c3ccccc3)n2N)c1	2	2	3	-7	i	0	.	-45
O=C(Cc1cccs1)NC(c1ccccc1)c1ccccc1	-1	-2	-1	1	i	-2	2	.
Cc1ccc(NC(=O)CN2CCCC2c2cccn2C)cc1C (configuration not stated)	.	0	-1	16	.	.	-10	-6
CC(C)(C)OC(=O)N1CC(O)CC1C(=O)OCC(=O)c1ccc(-c2ccccc2)cc1 (configuration not stated)	-7	-6	-5	5	i	-8	5	.
COc1ccc(N2CCN(c3ncccn3)CC2)cc1	5	15	13	0	i	-10	.	-2
O=Nc1c(O)[nH]c2ccc(Cl)cc12	7	-5	0	-7	i	11	-13	-18
O=C(NCc1csc(-c2cccs2)n1)C1CCCCC1	-8	3	-5	-6	i	-5	-37	.
CN(CCNC(=O)c1cc2c(-c3ccccc3F)nn(C)c2s1)C1CCCCC1	-1	0	-2	-1	i	2	-13	-5
COc1ccc(CCN2CC(C(=O)N3CCSCC3)CCC2=O)cc1 (configuration not stated)	-3	0	1	10	i	-5	1	-5
O=C(COC(=O)c1cccnc1Cl)NCCc1ccccc1	.	-5	1	-17	.	.	.	0
COc1ccc(C(=O)COC(=O)[C@H](C)Nc2ccc(C(F)(F)F)cc2[N+](=O)[O-])cc1	0	3	2	-6	i	-5	24	0
C1CCC2=NCCCN2CC1	-4	-1	2	4	i	7	-11	4
CCn1c(SC)nnc1C1CCN(CC(=O)Nc2ccccc2N2CCOCC2)CC1	0	6	0	6	i	-9	18	-7
CCCCNS(=O)(=O)c1ccc2nc(-c3cccnc3)cc(C(=O)NC3CC3)c2c1	-8	1	2	4	i	6	-1	-15
O=C1CCC(=O)N(c2ccccc2)N1	-2	-2	0	-13	i	-3	12	-18
COc1ccccc1CNC(=O)c1ccoc1C	14	-4	3	-9	i	-6	18	-17
COc1ccccc1NS(=O)(=O)c1cccc(C(=O)N/N=C/c2ccc([N+](=O)[O-])o2)c1	.	-12	-21	.	.	.	-4	-11
O=S(=O)(Nc1ccccn1)c1cnc(Cl)c(Br)c1	11	2	1	-11	i	0	-6	.
Cc1cc(OC(=O)c2ccccc2C)c([N+](=O)[O-])c(=O)[nH]1	-3	2	4	-4	i	-2	2	-18

3 entries out of the list, ordered by length of the SMILES, ascending.
SMILES	PABP FP inh	MT1-MMP act inh	MT1-MMP act inh RFP	CSC inhib	Rce1 inhib	eIF4H FP inh	Env fusion inh	Yeast UUG start
O=C(COC(=O)c1cccnc1Cl)NCCc1ccccc1	.	-5	1	-17	.	.	.	0
O=S(=O)(Nc1ccccn1)c1cnc(Cl)c(Br)c1	11	2	1	-11	i	0	-6	.
Cc1ccc(C)c(NC(=O)CSc2nnc(-c3ccccc3)n2N)c1	2	2	3	-7	i	0	.	-45

More records follow:
SMILES	PABP FP inh	MT1-MMP act inh	MT1-MMP act inh RFP	CSC inhib	Rce1 inhib	eIF4H FP inh	Env fusion inh	Yeast UUG start
CCOC(=O)c1nnn(-c2nonc2N)c1CN1CCCC1	-7	-4	1	-2	i	-12	0	-8
N#Cc1nc(Cc2cccc3ccccc23)oc1N1CCN(c2ccccc2)CC1	5	4	-2	-2	i	6	-39	-15
Cc1ccccc1Oc1nc2c(c(=O)n(C)c(=O)n2C)n1C	5	2	1	-3	i	-4	-1	-22
CC1=C(C)CS(=O)N(S(=O)(=O)c2ccc(Cl)cc2)C1 (configuration not stated)	-6	-1	2	9	i	-2	.	-32
c1coc(-c2nnc3n2C2(CCCC2)Cc2ccccc2-3)c1	-7	-5	2	.	i	-10	-3	-13
O=C(Nc1ccccc1)C1=C[C@H](C2CCCCC2)C[C@H](OCCCCO)O1	.	0	0	-5	i	.	-84	-33
O=C(NCCN1CCOCC1)C1CCN(Cc2ccccc2O)CC1	15	-1	4	-8	i	3	-24	.
Cn1cnnc1SCC(=O)Nc1nc(-c2ccc(F)cc2)cs1	2	1	-3	-1	i	1	17	.
CCOC(=O)C1CCN(C(=O)CCCN2C(=O)c3ccccc3C2=O)CC1	4	-2	0	-6	i	0	-76	-11
CC1(C(=O)NS(=O)(=O)c2ccc(Cl)cc2)CCN1C(=O)C1(c2ccccc2)CCCC1 (configuration not stated)	.	2	8	.	.	.	7	-8
CCC(=O)Oc1c(C(=O)CC)cc2c(C)cc(=O)oc2c1C	8	.	.	-30	i	0	-80	-14
Cc1c(C(=O)N2CCN(c3ncccn3)CC2)oc2ccc(Cl)cc12	.	-1	1	-4	.	.	1	-22
Cc1cccc(C(=O)N/N=C2/SCC(=O)N2Cc2ccccc2)c1	-8	1	2	-11	i	-7	-14	-4

6 neighbouring compounds already listed, for reference:
SMILES	PABP FP inh	MT1-MMP act inh	MT1-MMP act inh RFP	CSC inhib	Rce1 inhib	eIF4H FP inh	Env fusion inh	Yeast UUG start
Cn1cnnc1SCC(=O)Nc1nc(-c2ccc(F)cc2)cs1	2	1	-3	-1	i	1	17	.
CCOC(=O)C1CCN(C(=O)CCCN2C(=O)c3ccccc3C2=O)CC1	4	-2	0	-6	i	0	-76	-11
CC1(C(=O)NS(=O)(=O)c2ccc(Cl)cc2)CCN1C(=O)C1(c2ccccc2)CCCC1 (configuration not stated)	.	2	8	.	.	.	7	-8
CCC(=O)Oc1c(C(=O)CC)cc2c(C)cc(=O)oc2c1C	8	.	.	-30	i	0	-80	-14
Cc1c(C(=O)N2CCN(c3ncccn3)CC2)oc2ccc(Cl)cc12	.	-1	1	-4	.	.	1	-22
Cc1cccc(C(=O)N/N=C2/SCC(=O)N2Cc2ccccc2)c1	-8	1	2	-11	i	-7	-14	-4

Complete entries, looked up by structure. Order of screens: PABP FP inh, MT1-MMP act inh, MT1-MMP act inh RFP, CSC inhib, Rce1 inhib, eIF4H FP inh, Env fusion inh, Yeast UUG start
Record of Cc1cccc(C(=O)N/N=C2/SCC(=O)N2Cc2ccccc2)c1 → -8, 1, 2, -11, i, -7, -14, -4
Record of CC(OC(=O)c1ccccc1C(=O)N(C)c1ccccc1)C(=O)Nc1ccccc1[N+](=O)[O-] (configuration not stated) → ., 0, 3, 37, i, ., 10, 9

High-throughput results as filed in PubChem BioAssay.
